Source: PubChem
Mtb H37Rv: M. tuberculosis H37Rv growth inhibitors, H37Rv strain (AID 1626) | M. tuberculosis H37Rv growth inhibition; higher % means a stronger effect | inhibition, % at 10 µM, or IC50 in µM where a hit was titrated | hit rate 0.95% among 220,000;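 active = confirmed in a dose series; inconclusive = inhibition above 80% but not taken into the dose series; inactive = below 80% or under 30% at every dose of the series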;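 also: bacteria incubated seven days before Alamar blue readout; 0% = bacteria only wells and 100% = bacteria with antibiotic wells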
Arbovirus inh: antivirals against arbovirus infection, primary screen, cell-based, full library, 10K replicate subset | inhibition, % at 10 µM | AID 1251, 2008 | arbovirus infection cell-based antiviral screen | hit rate 0.37% among 200,000;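 active = inhibition from about 30%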;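 also: bluetongue infection of BSR cells; cell survival read as ATP light after 72 h; 0% = infected wells without compound and 100% = uninfected wells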
YopH inh: YopH tyrosine phosphatase inhibitors, primary screen, biochemical, fluorescence Ex485/Em525 | YopH tyrosine phosphatase [Yersinia enterocolitica] | inhibition, %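 (about 10 µM by stock and volumes)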 | hit rate 0.16% among 140,000 | AID 898, 2007;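 active = inhibition of 50% or more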;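 also: controls were vehicle for no effect and minimum signal wells for full effect; inactives centre near -20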
RecA intein inh: Mtb RecA intein splicing inhibitors, primary screen, biochemical, fluorescence, HTS. Protein RecA (Mycobacterium tuberculosis (strain ATCC 25618 / H37Rv)), P9WHJ3. hit rate 0.75% among 290,000. AID 2221, 2009. cell-free RecA intein splicing. inhibition, %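 (about 9 µM by stock and volumes)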; in the data active = inhibition above about 30%; inconclusive = no clear call, values can overlap the other calls;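 also: 0% = vehicle wells and 100% = reference inhibitor control wells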
Target sequence (P9WHJ3 whole entry, looked up): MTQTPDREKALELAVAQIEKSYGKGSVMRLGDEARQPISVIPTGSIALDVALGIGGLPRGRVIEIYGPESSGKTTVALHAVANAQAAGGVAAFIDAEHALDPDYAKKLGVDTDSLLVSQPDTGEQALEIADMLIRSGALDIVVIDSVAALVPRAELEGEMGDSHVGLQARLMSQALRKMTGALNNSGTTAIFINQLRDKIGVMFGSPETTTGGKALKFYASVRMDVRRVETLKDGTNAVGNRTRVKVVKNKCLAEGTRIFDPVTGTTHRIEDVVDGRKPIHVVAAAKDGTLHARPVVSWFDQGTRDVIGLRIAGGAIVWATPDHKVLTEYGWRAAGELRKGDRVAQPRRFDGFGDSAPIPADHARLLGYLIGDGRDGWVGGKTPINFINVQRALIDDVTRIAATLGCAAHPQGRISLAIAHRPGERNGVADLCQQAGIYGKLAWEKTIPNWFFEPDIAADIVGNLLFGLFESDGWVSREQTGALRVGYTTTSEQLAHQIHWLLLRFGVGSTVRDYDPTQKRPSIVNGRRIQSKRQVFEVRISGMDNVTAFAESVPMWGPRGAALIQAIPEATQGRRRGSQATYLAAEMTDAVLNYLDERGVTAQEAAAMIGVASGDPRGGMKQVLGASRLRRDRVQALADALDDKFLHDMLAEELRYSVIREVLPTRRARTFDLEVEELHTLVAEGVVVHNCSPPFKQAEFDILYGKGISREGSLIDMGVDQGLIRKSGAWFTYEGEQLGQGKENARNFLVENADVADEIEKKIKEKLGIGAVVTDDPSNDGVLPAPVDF
Mtb betalactam: beta-lactam sensitization of Mtb H37Rv, H37Rv. M. tuberculosis H37Rv growth with meropenem, percent inhibition; hits of this screen are not shown here. inhibition, % at 25 µM. hit rate 0.27% among 330,000;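 active = about 74% or more and at least 40 points above the plate without the antibiotic, then above 30% in a dose series; inconclusive = first-round hits that could not be retested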;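 also: growth measured after seven days incubation then overnight dye step; 0% = bacteria only wells and 100% = bacteria with antibiotic; twin plates without the antibiotic show which effects depend on it; some results filed as inactive read as strong as hits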
Arbovirus inh repeat: recorded beside Arbovirus inh, whose call it bears; inhibition, %; measured here: 10K subset replicate screen; many hits read low in the repeat;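 first of two repeat runs on a subset; 0% = infected and 100% = uninfected wells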
* hit, by the source's call; ? = inconclusive; . = no result given. These rows are one share of the data (hit frequency here may not be typical).

SMILES | Mtb H37Rv | Arbovirus inh | YopH inh | RecA intein inh | Mtb betalactam | others
CC(Sc1ccsc1[N+](=O)[O-])C(=O)NCc1ccccc1 (stereo not drawn) | 15.9% | 19.2 | . | 0.7 | -1.7
C[C@H](NS(=O)(=O)c1ccc(Cl)c(Cl)c1)C(=O)OCc1cc(=O)n2cc(Br)ccc2n1 | 7.0% | -9.4 | -11.7 | 2.6 | 23.5
Cc1cc[n+](Cc2ccccc2)cc1 | . | . | . | -1.0 | -14.7
COCCNC(=S)N(CCc1c(C)[nH]c2ccc(C)cc12)Cc1cc(OC)c(OC)c(OC)c1 | . | 2.8 | -5.8 | 3.6 | 0.3
CC(C)c1cc(NC(=O)CSc2nnc(-c3ccccc3F)n2C)on1 | 0.3% | 5.8 | -26.1 | 4.4 | 1.7 | Arbovirus inh repeat=4.4
Cc1nc2ccc(S(=O)(=O)NC(C(=O)NC3CCCC3)C(C)C)cc2s1 (stereo not drawn) | -8.0% | 8.4 | -3.3 | -0.5 | 4.8 | Arbovirus inh repeat=-3.6
Cc1cccc(Cc2nnc(CCC(=O)N3CCCC(CN4CCOCC4)C3)o2)c1 (stereo not drawn) | -5.3% | 1.9 | . | -0.1 | -8.5
Cc1cc(C)n(Cc2ccc(C(=O)Nc3cccc(Br)c3)o2)n1 | 3.8% | 6.3 | -28.4 | 0.5 | 5.8
O=C(C1CCN(S(=O)(=O)c2cccs2)CC1)N1CCN(c2ccccc2)CC1 | -12.1% | -3.3 | -24.5 | . | 9.5
O=C(Nc1cccc(-c2csc(Nc3cccc(C(F)(F)F)c3)n2)c1)c1ccccc1 | 17.2% | . | . | 11.2 | 89.7
O=C(C1=C(O)C(=O)N(CCN2CCOCC2)C1c1ccccn1)c1cccs1 (stereo not drawn) | 2.3% | 2.4 | -7.2 | 0.4 | -5.1
O=C(Nc1nncs1)c1c(F)c(F)c(F)c(F)c1F | -0.6% | 11.5 | 21.5 | 3.5 | -0.9
CC(C)Oc1ccc(CCc2nnc(SCC(=O)O)n2-c2ccccc2)cc1 | -0.2% | -0.6 | . | 0.8 | -4.1
CC(C)N(CCCNC(=O)c1ccc(CS(=O)(=O)c2c(Cl)cccc2Cl)o1)Cc1ccccc1 | . | . | . | -1.5 | -2.9
CC(=O)c1cccc(Nc2nc(-c3cccc([N+](=O)[O-])c3)cs2)c1 | 1.9% | -18.3 | -21.3 | -0.2 | 2.9
CCCN(CCC)S(=O)(=O)c1ccc(NS(=O)(=O)c2ccc(F)cc2)cc1 | -8.2% | 10.1 | -9.4 | 0.6 | -13.3
CC(Oc1ccc(Cl)cc1)C(=O)NNC(=S)NC(=O)c1ccco1 (stereo not drawn) | ? | -25.3 | -25.5 | -3.2 | 97.8
CC(C)(C)c1nc(NCC2CCCO2)c2nnn(Cc3ccccc3)c2n1 (stereo not drawn) | 7.4% | 6.2 | -30.3 | 0.0 | 0.9
CN(C)CCN=Cc1c(O)n(CCC2=CCCCC2)c(=O)[nH]c1=O | 5.7% | 4.0 | -23.2 | -3.3 | -8.0
O=S(=O)(c1ccc(F)cc1)N1CCC2(CC1)OCCO2 | -3.3% | 2.5 | . | 4.4 | -6.8
C/C(=N\NC(=O)c1cccc(C)c1)c1ccc(N2CCOCC2)cc1 | . | -10.3 | 0.3 | . | 23.3
COc1ccc(C(=O)N2CCCC(c3nc(-c4cccs4)no3)C2)cc1 (stereo not drawn) | -1.9% | -2.9 | 9.0 | -5.3 | 1.4
COc1ccccc1NC=C1C(=O)OC(C)(C)OC1=O | -9.9% | 10.4 | -12.9 | -0.3 | -16.9 | Arbovirus inh repeat=0.9
O=C(Nc1ccc(F)cc1)C(Cc1ccccc1)n1cccc1 (stereo not drawn) | 4.5% | . | . | 3.4 | -9.3
COc1ccc(C(=O)NC(=S)NCC2CCCO2)cc1 (stereo not drawn) | 1.3% | 4.7 | -28.0 | 6.1 | -2.6
CCOC(=O)C(C)Sc1ncc(OC)c(Sc2ccc(Cl)cc2)n1 (stereo not drawn) | 7.2% | 7.7 | -40.0 | 1.2 | 7.1
CSc1ccc(CN2CCC(Oc3ccc(C(=O)N4CCCC4)cc3)CC2)cc1 | . | . | . | -0.6 | 2.3
c1ccc(CSc2nc3ccccc3[nH]2)cc1 | -3.6% | . | . | 1.2 | 1.0
COc1ccccc1CNc1ccc(Br)cn1 | . | . | . | 1.4 | 42.9
C=CCc1cccc2cc(C(=O)N3CCN(C(=O)OCC)CC3)c(=O)oc12 | 2.1% | 1.8 | -46.6 | -0.5 | -21.8

Reprinted from the entries so far, three compounds:
SMILES | Mtb H37Rv | Arbovirus inh | YopH inh | RecA intein inh | Mtb betalactam | others
C/C(=N\NC(=O)c1cccc(C)c1)c1ccc(N2CCOCC2)cc1 | . | -10.3 | 0.3 | . | 23.3
COc1ccc(C(=O)N2CCCC(c3nc(-c4cccs4)no3)C2)cc1 (stereo not drawn) | -1.9% | -2.9 | 9.0 | -5.3 | 1.4
COc1ccccc1NC=C1C(=O)OC(C)(C)OC1=O | -9.9% | 10.4 | -12.9 | -0.3 | -16.9 | Arbovirus inh repeat=0.9

Remaining list, next part
SMILES | Mtb H37Rv | Arbovirus inh | YopH inh | RecA intein inh | Mtb betalactam | others
c1ccc(CNC2=NCCCC2)cc1 | -4.7% | 0.4 | -23.9 | -1.7 | 2.6
Cc1cc(C)c2c(N)c(C(=O)Nc3ccccc3Cl)sc2n1 | . | . | . | -1.6 | 49.4
COn1c(=O)c(-c2ccccc2)[n+]([O-])c2ccccc21 | . | . | . | -1.3 | -0.9
Cn1ccnc1Sc1cc(Cl)ccc1[N+](=O)[O-] | -3.0% | -5.1 | . | 1.0 | 7.3
O=C(CCC(=O)OCc1ccc(Cl)cc1)Nc1cccc([N+](=O)[O-])c1 | 0.0% | -1.1 | -54.0 | 2.1 | 7.3
Cc1nn(C)c(C)c1C1C(C#N)=C(N)OC2=C1C(=O)CC(C)(C)C2 (stereo not drawn) | 7.2% | 6.3 | -15.1 | 0.3 | 1.7
Cc1nc(SCC(=O)c2ccc(F)cc2)c([N+](=O)[O-])[nH]1 | -4.5% | 6.2 | -18.7 | -1.1 | 0.8
COc1cc(/C=C/C(=O)c2ccccc2O)cc(OC)c1OC | -1.7% | -5.2 | . | 0.9 | -0.9 | Arbovirus inh repeat=-2.9
O=c1[nH]c(=O)n(Cc2ccccc2)c(O)c1C=NCCCn1ccnc1 | -7.8% | -2.7 | -37.9 | -5.5 | -2.7
CCCCC1CC(C)(C(=O)CSc2nc3ccccc3s2)OC1=O (stereo not drawn) | 9.9% | -0.9 | -7.0 | 13.4 | 8.5
CC1=C(C(=O)NCc2ccc3c(c2)OCO3)C2(CCC(C)CC2)OC1=O (stereo not drawn) | 2.5% | -6.3 | -43.8 | -0.2 | -4.3
CN(C)S(=O)(=O)c1cc(NC(=O)c2ccc(-n3ccnc3)c([N+](=O)[O-])c2)ccc1Cl | . | . | . | -2.1 | 8.8
O=C(/C=C/c1c(F)cccc1Cl)Nc1ncccn1 | -6.1% | -19.3 | -8.1 | -3.2 | 2.9
COc1ccc(OCC(=O)N2CCN(c3nnc(-c4ccc(C)cc4)c4ccccc34)CC2)cc1 | 46.1% | . | . | -1.3 | 93.9
COC1(c2cc(-c3ccccc3)nc(N)n2)CCCCC1 | -2.9% | 4.5 | -38.4 | 3.1 | ?
CC(C)c1nnc(NC(=O)CCC(=O)Nc2ccc(Cl)cc2)s1 | . | . | . | -0.7 | -2.3
O=C(c1ccc(NC(=O)C2(c3ccccc3)CCCC2)cc1)N1CCOCC1 | 24.8% | . | . | 1.0 | 99.7
C/C(=N\NC(=O)c1ccc(F)cc1)c1ccc(N2CCOCC2)cc1 | 3.1% | -8.0 | . | -3.4 | -1.8
O=C(NC1CC1)C1=COCCO1 | -8.4% | 6.7 | -11.0 | -2.4 | 2.9
COc1ccc(NC(=O)CCS(=O)(=O)c2cc3c(cc2Cl)NC(=O)CO3)cc1OC | . | . | . | 3.2 | 12.3

In the list so far, these contain bromine:
SMILES | Mtb H37Rv | Arbovirus inh | YopH inh | RecA intein inh | Mtb betalactam | others
C[C@H](NS(=O)(=O)c1ccc(Cl)c(Cl)c1)C(=O)OCc1cc(=O)n2cc(Br)ccc2n1 | 7.0% | -9.4 | -11.7 | 2.6 | 23.5
Cc1cc(C)n(Cc2ccc(C(=O)Nc3cccc(Br)c3)o2)n1 | 3.8% | 6.3 | -28.4 | 0.5 | 5.8
COc1ccccc1CNc1ccc(Br)cn1 | . | . | . | 1.4 | 42.9

Next records:
SMILES | Mtb H37Rv | Arbovirus inh | YopH inh | RecA intein inh | Mtb betalactam | others
COC(=O)C1=NN(C(C)(C)CC(C)=O)C2C(=O)N(C3CCCCC3)C(=O)C12 (stereo not drawn) | -5.5% | 0.8 | . | -3.2 | -2.0
CCCCC(CC)C(=O)Nc1ccccc1C(=O)NC(C)C (stereo not drawn) | -4.5% | 1.6 | 22.8 | 0.7 | -1.0
O=C(O)CCC(=O)Nc1ccc(Oc2ncnc3cc(Cl)ccc23)nc1 | -0.9% | . | . | -0.4 | -2.2
NC(=O)c1ccc(N=Nc2c(O)c3ccccc3[nH]c2=O)cc1 | -7.5% | . | . | -5.1 | 6.3
NNC(=O)c1ccccc1-n1cccc1 | 4.8% | 4.1 | . | 6.7 | 5.1
CCOC(=O)C1=C(CCl)NC(=O)NC1c1ccc2c(c1)OCO2 (stereo not drawn) | . | . | . | 2.5 | 71.4
Cc1cc(C)nc(-n2ncc(C#N)c2N)n1 | -4.6% | 4.3 | . | -5.0 | 0.8
COc1ccccc1Nc1nc2nonc2nc1N1CCCCC1C (stereo not drawn) | 3.6% | -7.5 | -20.9 | . | -5.2
O=C(CSc1n[nH]c(-c2ccccc2)n1)Nc1ncc(Br)cc1Br | -17.9% | -2.7 | -6.6 | 3.4 | -9.0
CC(C)OC(=O)NCCOC(=O)Nc1cccc(Cl)c1 | -8.5% | 2.1 | -35.6 | 0.8 | -2.3
O=C(NC1=NCCS1)[C@H](Cc1ccccc1)N1C(=O)c2ccccc2C1=O | -6.9% | 2.9 | -5.7 | 3.1 | 4.1
CCc1ccc(OCC(=O)NN2Cc3ccccc3C2=N)cc1 | 3.2% | -0.8 | . | 0.6 | -6.5
CCOc1cc2c(cc1OCC)-n1cccc1C(c1ccccc1F)NC2 (stereo not drawn) | . | . | . | 1.8 | 5.8
CCOC(=O)N1CCN(C(=O)COC(=O)CNC(=O)c2ccc(Cl)cc2Cl)CC1 | . | . | . | 0.0 | 0.7
CCOc1cc(NCCN2CCOCC2)c([N+](=O)[O-])cc1OCC | . | . | . | -0.2 | 1.6
O=S(=O)([N-]c1nc2ccccc2nc1-[n+]1ccc(CCCc2ccccc2)cc1)c1cccs1 | -8.0% | . | . | -4.5 | -6.2
O=C1CN(C(=O)COC(=O)/C=C/c2ccc(S(=O)(=O)N3CCOCC3)cc2)c2ccccc2N1 | -5.3% | -9.4 | . | 1.3 | -5.8
O=C(O)CC1=C(O)C(=O)N(c2ccccc2)C1c1ccc(Br)cc1 (stereo not drawn) | -0.4% | 5.5 | -24.8 | 3.4 | -11.8
CCn1ccnc1CN(C)C(=O)C1CCC(=O)N(CCc2cccc(F)c2)C1 (stereo not drawn) | . | . | . | -0.3 | -14.5
Cc1ccc2cc(CN(Cc3ccco3)C(=O)c3ccco3)c3nnnn3c2c1 | . | . | . | 1.3 | -3.5
O=C(NCC1CCCO1)c1sc(=S)n2c1[nH]c(=O)c1ccc(C(=O)N3CCCCC3)cc12 (stereo not drawn) | 0.3% | 5.9 | -27.6 | -74.5 | 64.5
Cc1cc(=O)oc2cc(OCc3nnc(-c4ccccc4Br)o3)ccc12 | 8.4% | -6.0 | -41.8 | . | -9.3
O=C(NC(=S)Nc1cccc(Cl)c1N1CCOCC1)c1cccs1 | 1.8% | 0.8 | . | -0.9 | 3.2
CC1(CCc2ccc3c(c2)OCO3)NC(=O)c2ccccc2N1 (stereo not drawn) | -2.5% | 1.6 | -44.3 | -7.2 | 6.1
COc1ccc(C(=O)CCC(=O)NC2=NCCS2)cc1 | . | . | . | -8.4 | 18.4
O=C(CCc1ccccc1)Nc1cccc(-c2nnc(-c3ccco3)o2)c1 | -5.7% | -7.9 | 37.0 | -0.2 | -3.0
COc1ccc(NC(=O)C/C(C)=N/NC(=O)c2ccccn2)c(OC)c1 | . | . | . | -1.7 | 99.0
COc1ccc(-n2nc(C(=O)Nc3nc4ccc(OC)cc4s3)c3ccccc3c2=O)c(OC)c1 | 2.2% | -15.6 | -20.0 | 0.6 | 2.3
